GALR2 agonist: GALR2 (human) receptor agonism. O43603. GALR2-expressing cells, agonist activation read-out. activation, %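 (tested at 5 µM)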. actives 0.48% (n = 140,000);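 active = above mean plus 3 SD of all compounds, about 5% in these data, not always enough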;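 also: 0% = vehicle buffer wells and 100% = reference agonist at full effect; tested in CHO reporter cells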
Target sequence (O43603 whole entry, looked up): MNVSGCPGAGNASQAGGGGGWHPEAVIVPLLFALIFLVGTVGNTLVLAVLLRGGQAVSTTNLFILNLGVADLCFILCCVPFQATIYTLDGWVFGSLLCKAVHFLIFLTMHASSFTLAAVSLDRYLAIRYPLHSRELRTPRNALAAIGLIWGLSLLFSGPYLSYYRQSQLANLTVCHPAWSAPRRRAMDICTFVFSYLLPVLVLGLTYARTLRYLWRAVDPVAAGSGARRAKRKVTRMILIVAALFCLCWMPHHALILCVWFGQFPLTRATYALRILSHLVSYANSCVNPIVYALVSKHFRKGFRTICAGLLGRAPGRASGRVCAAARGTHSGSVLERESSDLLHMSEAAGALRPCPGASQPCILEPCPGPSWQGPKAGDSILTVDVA
HSV replic up: HSV replication enhancement | HSV replication augmentation in cells, fold increase | maximum fold increase | actives 0.005% (n = 220,000) | AID 1956;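 active = peak rise of 1.5-fold or more in the series; tested in PC3 cells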;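 also: first round at 10 µM; read as green reporter fluorescence; hits show the peak of a series up to 25 µM; 1 = signal of infected wells without compound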
INS promoter inh: TRM-6 insulin promoter activity inhibition; actives 0.9% (n = 130,000); TRM-6 cells (human fetal islet line), insulin promoter-eGFP reporter, imaging; reporter expression induced with tamoxifen; AID 1273; inhibition, % at 2 µM;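 active = inhibition above the mean plus 3 SD, with well images judged a real hit on visual review, cut at about 60% in these data, passing the limit was not always enough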
RGS16-Gao: RGS16-Galphao interaction regulator (human) | O15492+P09471 | actives 0.38% (n = 220,000) | bead-based flow cytometry RGS16-Galphao binding, fluorescence; actives lie on both sides | AID 1441 | binding response (% of control), % at 10 µM;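 active = below 25% or above 175%, edge rows of some plates excepted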;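 also: Galphao activated by GDP with aluminum fluoride before binding; 100% = wells without compound and 0% = beads without RGS; some results beyond the cut were filed as inactive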
Target sequence (O15492 whole entry, looked up): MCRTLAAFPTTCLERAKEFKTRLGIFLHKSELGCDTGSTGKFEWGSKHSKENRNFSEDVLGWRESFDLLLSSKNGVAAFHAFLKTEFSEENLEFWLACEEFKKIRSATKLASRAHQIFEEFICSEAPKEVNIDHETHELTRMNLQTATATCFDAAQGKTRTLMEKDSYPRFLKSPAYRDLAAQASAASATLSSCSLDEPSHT
Target sequence (P09471 whole entry, looked up): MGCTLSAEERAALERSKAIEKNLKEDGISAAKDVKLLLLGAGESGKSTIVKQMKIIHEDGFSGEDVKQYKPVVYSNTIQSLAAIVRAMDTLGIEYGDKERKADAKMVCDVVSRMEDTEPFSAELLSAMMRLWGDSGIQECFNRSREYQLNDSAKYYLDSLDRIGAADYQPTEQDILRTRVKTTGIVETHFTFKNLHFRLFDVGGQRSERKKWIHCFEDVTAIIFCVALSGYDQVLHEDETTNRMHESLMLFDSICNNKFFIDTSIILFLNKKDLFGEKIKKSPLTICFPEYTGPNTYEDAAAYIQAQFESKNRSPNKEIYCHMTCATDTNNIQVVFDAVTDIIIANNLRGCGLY
PKD1 inh: PKD1 (human) kinase inhibition | PKD1 kinase fluorescence polarization assay | inhibition, %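 (about 10 µM by stock and volumes)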 | actives 0.056% (n = 200,000);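 active = inhibition of 50% or more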;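 also: controls were vehicle for no effect and a reference inhibitor for full effect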
INS promoter inh cell count: second read-out of INS promoter inh, no call of its own (marks repeat the call); normalized cell count, %; measured here: cell count, toxicity; reference of the scale not given here;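 cells exposed to compound for 48 h; stained nuclei by imaging scaled within each plate; lower means fewer cells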
HSV replic up primary fold: further read-out of HSV replic up, marked with its call; fold increase; compound at 10 µM; measured here: primary screen fold increase 10 uM; tested in PC3 cells;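 GFP signal in the first replicate; 1 = infected wells without compound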
Starred values were filed as active, the others as inactive; i = inactive; . = not tested or not shown.

SMILES | GALR2 agonist | HSV replic up | HSV replic up primary fold | INS promoter inh | INS promoter inh cell count | RGS16-Gao | PKD1 inh
Cc1cc2ccccc2c(=O)n1CC(=O)NCC(=O)N1CCCC(C)C1 (centres undefined) | -2.5 | i | 0.9 | 29 | 39 | 103 | 13
C=CCSc1nnc(COc2ccc(=O)n(-c3ccccc3)n2)n1CC | . | i | 0.94 | . | . | 101 | -2
Cc1ccccc1-c1nc(-c2ccccn2)no1 | . | i | 0.98 | . | . | 101 | 5
Cc1nnc(SCC2=C(C(=O)O)N3C(=O)C(NC(=O)C(C)n4nc(C(F)(F)F)cc4C)C3SC2)s1 (centres undefined) | . | i | 1 | 21 | 97 | 112 | 5
COc1ccc(N(CC(=O)N2CCN(c3ccc(Cl)cc3)CC2)S(=O)(=O)c2c(C)n[nH]c2C)cc1 | . | . | . | -14 | 196 | 102 | -4
COCCN(C(=O)Cn1nnc2ccccc21)C(C(=O)NC1CCCC1)c1cc(OC)ccc1OC (centres undefined) | 0.7 | i | 0.93 | -75 | 129 | 89 | -10
CCOc1ccccc1NC(=O)N1CCCC(c2nc3c(nnn3Cc3ccc(C)cc3)c(=O)[nH]2)C1 (centres undefined) | -2.7 | i | 0.79 | . | . | 107 | -3
CCOC(=O)C(NC(=O)c1ccccc1F)(Nc1cc(C)on1)C(F)(F)F (centres undefined) | -1.4 | i | 1 | -43 | 70 | 115 | -20
COc1ccc(C(=O)C[n+]2ccc(N)c(C)c2C)cc1 | . | i | 0.89 | -23 | 67 | 100 | 2
CCOC(=O)c1c(NC(=O)c2ccco2)sc2c1CCCCC2 | -1.2 | . | . | . | . | 109 | -8
N#C/C(=C\c1ccc(F)cc1F)S(=O)(=O)c1ccccn1 | . | i | 1 | . | . | 87 | .
O=S(=O)(NC1CCCC1)c1ccccc1Br | . | i | 0.97 | . | . | 100 | .
O=C(c1cc2ccccc2o1)N1CCCCCC1 | -1.6 | i | 0.94 | 49 | 122 | 103 | -13
CCOc1cc(CN2CCCC(C(=O)c3cccc(C(F)(F)F)c3)C2)ccc1O (centres undefined) | . | i | 0.89 | . | . | 106 | -6
COc1ccc(OC)c(NC(=O)NC2(C(F)(F)F)Oc3ccccc3O2)c1 | 0.1 | i | 0.67 | 45 | 72 | 100 | -20
COc1ccc(/C=N\NS(=O)(=O)c2ccc(Cl)cc2)cc1COc1ccccc1[N+](=O)[O-] | -0.3 | . | . | -250 | 79 | 117 | 8
COc1ccccc1NC(=O)COc1cccc(-n2cnnn2)c1 | -0.5 | i | 0.97 | 12 | 91 | 101 | -1
Cn1c(NCc2ccccc2)cc(=O)n(C)c1=O | -0.2 | i | 0.97 | 21 | 156 | 101 | -3
Cc1cc(C)c2c(CC(=O)Nc3ccc(Cl)cn3)coc2c1 | -1.1 | i | 1 | 44 | 150 | 102 | 7
COc1c(Cl)cc(Cl)cc1C(=O)Nc1ccc(NC(C)=O)cc1 | . | i | 0.86 | 33 | 127 | 101 | 0
O=C(NCc1ccc(F)cc1)C1CCN(c2cnccn2)CC1 | . | i | 0.99 | 47 | 79 | 109 | 2
CCOC(=O)C1CCN(S(=O)(=O)c2cc(Br)cc3c2N(C(=O)C2CC2)CC3)CC1 | -0.5 | i | 1.1 | . | . | 111 | 2
O=C(CCCc1ccccc1)NCc1cn2ccsc2n1 | -1.2 | i | 0.82 | . | . | 100 | -1
CCc1ccc(C2CC(c3ccc(F)cc3)Nc3nc(N)nn32)cc1 (centres undefined) | -0.9 | i | 0.93 | . | . | 106 | 0
CC(C)(C)OC(=O)N1CCC(c2cc(=O)n3[nH]cc(C(=O)NC4CCCC4)c3n2)CC1 | -2.7 | i | 0.96 | . | . | 99 | -1
Further compounds.
SMILES | GALR2 agonist | HSV replic up | HSV replic up primary fold | INS promoter inh | INS promoter inh cell count | RGS16-Gao | PKD1 inh
COc1cc(OC)cc(-c2nc3ccccc3s2)c1 | -3.3 | i | 0.94 | 36 | 83 | 101 | -4
CC1(C)CC(=O)C(C=NCCN2CCN(C(=S)NC3CCCCC3)CC2)=C(O)C1 | -2.4 | i | 0.96 | 18 | 112 | 110 | -5
Cc1ccc(NC2=NC(C(=O)Nc3ccc(C)c(C)c3)CC(=O)N2)cc1 (centres undefined) | -2.3 | i | 0.78 | -19 | 92 | 100 | -7
O=C(Cn1cnc2cc([N+](=O)[O-])ccc2c1=O)Nc1cccc2ccccc12 | . | i | 0.9 | . | . | 104 | .
Nc1nc(N2CCN(C/C=C/c3ccccc3)CC2)nc2ccccc12 | -0.8 | i | 0.86 | -15 | 142 | 93 | -2
CCOC(=O)N1CCN(C(=O)CSc2ccc(-c3ccncc3)nn2)CC1 | . | i | 0.96 | 75* | 105* | 108 | 2
Cc1ccc(NCc2nnc(SCC(=O)Nc3ncc(C)s3)n2Cc2ccco2)c(C)c1 | -0.6 | i | 1 | . | . | 93 | -12
Cc1c([N+](=O)[O-])c(N)nn1C | . | i | 1 | . | . | 97 | .
Cc1ccc(C)c(S(=O)(=O)n2cnc3ccccc32)c1 | -0.8 | i | 0.94 | 8 | 122 | 130 | -13
CCOC(=O)c1cnc(-c2ccccc2)nc1Oc1ccc(Cl)cc1 | -0.8 | i | 0.97 | -50 | 40 | 105 | -2
CC(C)CNC(=O)C1CCN(c2ccc(S(=O)(=O)N3CCOCC3)cc2Cl)CC1 | -0.9 | i | 1.2 | -85 | 67 | 94 | -11
CSc1ccccc1C(=O)NCc1ccc(C)cc1 | . | i | 0.98 | 10 | 93 | 110 | 1
Cc1ccc2nc(C3CCN(S(=O)(=O)c4ccc5ccccc5c4)CC3)[nH]c2c1 | -0.8 | . | . | -19 | 98 | 97 | 8
Nc1nc(SCc2nc(-c3ccccc3)no2)[nH]c(=O)c1-c1ccccc1 | -0.5 | i | 0.96 | 0 | 52 | 104 | -4
COc1ccccc1CN1CCCCC1C(=O)O (centres undefined) | . | i | 0.84 | . | . | 101 | 4
COC(=O)c1cncc(C)c1 | . | i | 0.91 | . | . | 101 | .
COc1cc(/C=N/Nc2nc(N3CCCC3)nc(N3CCCC3)n2)ccc1OCc1ccccc1F | . | i | 0.97 | . | . | 101 | .
N#CCCn1cc(C(=O)Nc2ccccc2Br)c(-c2cc3ccccc3o2)n1 | 0.9 | i | 1.1 | . | . | 105 | 4
COc1ccc(NC(=O)C2=NN(C3CCS(=O)(=O)C3)C(=O)CC2)cn1 (centres undefined) | . | i | 1 | 31 | 101 | 103 | -4
CN(C)CC#CCC(O)(c1ccccc1)c1ccccc1 | . | i | 0.72 | . | . | 108 | .
CCOc1cc(C(=O)N2CCN=C2SC)cc(OCC)c1OCC | -3.6 | i | 0.99 | -44 | 103 | 101 | -9
Cn1cccc1-c1nc2ccccc2[nH]1 | . | i | 0.92 | . | . | 97 | .
CCn1cc(CNC(=S)Nc2cccc(Cl)c2C)cn1 | . | i | 1 | -47 | 114 | 102 | -5
COc1ccc(-c2c/c(=N\c3nc(-c4ccccc4)c(C)s3)c3ccccc3o2)cc1O | 1.3 | i | 0.75 | -12 | 52 | 95 | -5
COc1cc(/C=N/NC(=O)c2ccc([N+](=O)[O-])cc2Cl)cc(Br)c1O | -0.5 | i | 1.2 | -37 | 60 | 95 | 7

A draw from above in order of molar mass, rising.
SMILES | GALR2 agonist | HSV replic up | HSV replic up primary fold | INS promoter inh | INS promoter inh cell count | RGS16-Gao | PKD1 inh
CSc1ccccc1C(=O)NCc1ccc(C)cc1 | . | i | 0.98 | 10 | 93 | 110 | 1
Cc1ccc(C)c(S(=O)(=O)n2cnc3ccccc32)c1 | -0.8 | i | 0.94 | 8 | 122 | 130 | -13
O=C(Cn1cnc2cc([N+](=O)[O-])ccc2c1=O)Nc1cccc2ccccc12 | . | i | 0.9 | . | . | 104 | .
CCOC(=O)N1CCN(C(=O)CSc2ccc(-c3ccncc3)nn2)CC1 | . | i | 0.96 | 75* | 105* | 108 | 2
CC1(C)CC(=O)C(C=NCCN2CCN(C(=S)NC3CCCCC3)CC2)=C(O)C1 | -2.4 | i | 0.96 | 18 | 112 | 110 | -5

New compounds follow.
SMILES | GALR2 agonist | HSV replic up | HSV replic up primary fold | INS promoter inh | INS promoter inh cell count | RGS16-Gao | PKD1 inh
O=C(CSc1nc(-c2ccco2)cc(C(F)(F)F)n1)N1CCN(Cc2ccccc2)CC1 | -1.4 | i | 0.8 | . | . | 103 | 10
Oc1ccc(N=C/C=C/c2ccc(Br)cc2)cc1-c1nc2ccccc2s1 | 0.4 | i | 1.2 | 23 | 104 | 102 | -12
COC(=O)C1=C(C)n2nnnc2NC1c1ccc(Cl)cc1 (centres undefined) | -0.9 | i | 1.1 | 47 | 85 | 104 | -6
Nc1scn[n+]1Cc1cccc2cccnc12 | . | i | 0.91 | . | . | 103 | .
Cn1c(Cn2c(=O)sc3ccccc32)nnc1SCC(=O)NC1CCCC1 | -0.4 | i | 1.1 | . | . | 82 | -11
Cc1cc(C)c(NC(=S)NC(=O)c2ccc(-c3ccccc3)cc2)c(C)c1 | -1.4 | i | 1.1 | . | . | 106 | -1
COc1ccc(-n2nc(C(=O)NCc3ccco3)c3ccccc3c2=O)cc1 | -1.2 | i | 0.73 | . | . | 101 | -3
O=C(Nc1c(Cl)cc(Cl)cc1C(=O)NCC1CCCO1)c1ccco1 (centres undefined) | -1.2 | i | 0.94 | . | . | 100 | -12
Cc1cccc(/C=N/NC(=O)CN2CCCCCCC2)c1 | -1.3 | i | 1.1 | . | . | 108 | -6
NC(=O)c1c(NC(=O)C2c3ccccc3Oc3ccccc32)sc2c1CCCCC2 | 0.6 | i | 1.3 | -12 | 136 | 102 | 1
N#Cc1ccsc1NC(=O)CN1CCN(S(=O)(=O)c2ccccc2C(F)(F)F)CC1 | 0.0 | i | 0.94 | -3 | 119 | 100 | 11
CCOC(=O)c1cc(-c2ccco2)nc2c1c(C)nn2-c1cccc(Cl)c1 | -0.6 | i | 0.82 | -7 | 100 | 96 | 7
Cc1cccc(-n2c(=S)[nH]c3nc4c(cc3c2=O)COC(C)(C)C4)c1 | . | i | 1.1 | . | . | 84 | .
COc1cc(C2C(C#N)=C(N)Oc3cc(C)n(CCN4CCOCC4)c(=O)c32)cc(OC)c1OC (centres undefined) | -3.0 | i | 1 | . | . | 95 | -4
O=C(NCCCN1CCN(Cc2ccccc2Cl)CC1)Nc1ccccc1 | -1.9 | i | 0.94 | -18 | 96 | 115 | 1
O=C(CCc1nc2ccccc2s1)OCC(=O)N1CCN(C(=O)c2ccco2)CC1 | -0.1 | i | 0.75 | 3 | 90 | 100 | -9
O=C(OCCN=C1NS(=O)(=O)c2ccccc21)c1ccccc1 | -1.6 | i | 0.98 | -8 | 118 | 109 | 1
O=C(Nc1ccc([N+](=O)[O-])cc1)/C(=C/c1cccc([N+](=O)[O-])c1)NC(=O)C1CCCCC1 | -1.3 | . | . | -23 | 51 | 107 | -10
Cc1cccc2cc(CN(CCN(C)C)C(=S)NCc3ccco3)c(=O)[nH]c12 | -1.6 | i | 1 | . | . | 103 | -6
C=CCOC(=O)C1=C(C)N=c2s/c(=C3\C(=O)N(CC(=O)O)c4ccccc43)c(=O)n2C1c1ccc(OC)cc1 (centres undefined) | . | i | 1.1 | . | . | 102 | .
COc1cc2c(cc1NC(=O)COC(=O)[C@@H](NC(=O)c1ccccc1F)C(C)C)oc1ccccc12 | 0.0 | i | 0.94 | -33 | 116 | 99 | -3
CNS(=O)(=O)c1cccc(C(=O)OCC(=O)Nc2ccc(OC)cc2[N+](=O)[O-])c1 | . | i | 0.88 | 53 | 74 | 104 | -7
C=C(C)Cn1c(N(CCO)Cc2ccccc2)nc2c1c(=O)[nH]c(=O)n2C | -1.7 | i | 0.93 | . | . | 104 | 5
COc1ccc(C2CC2/C(C)=N/OC(=O)c2ccc(F)cc2)cc1 (centres undefined) | . | i | 0.91 | . | . | 94 | -3
CCC(C)OC(=O)c1cc(C)nc2c(Br)cc(Br)cc12 (centres undefined) | -2.5 | i | 0.93 | 30 | 113 | 104 | -6
COc1cc(/C=N/n2c(C)n[nH]c2=S)ccc1OCc1ccccc1 | 1.1 | i | 0.91 | -30 | 160 | 95 | -6
Cc1nc(S(=O)(=O)N(C)c2ccccc2)c(C#N)c(C)c1Cl | -2.4 | i | 0.86 | 0 | 95 | 104 | -9
COc1cc2c(cc1OC)C(c1cccnc1)CC(=O)N2 (centres undefined) | -0.9 | i | 0.98 | . | . | 105 | -10
CC(C)(C)c1ccc(OCCC(=O)NC2=NCCS2)cc1 | -1.7 | i | 0.9 | 38 | 85 | 101 | -8
Cc1ccccc1NC(=O)CNc1ccc(Cl)c(C(F)(F)F)c1 | -0.8 | i | 1 | . | . | 105 | 0

In another format: results already given.
smiles,GALR2 agonist,HSV replic up,HSV replic up primary fold,INS promoter inh,INS promoter inh cell count,RGS16-Gao,PKD1 inh
CCC(C)OC(=O)c1cc(C)nc2c(Br)cc(Br)cc12 (centres undefined),-2.5,i,0.93,30,113,104,-6
COc1cc(/C=N/n2c(C)n[nH]c2=S)ccc1OCc1ccccc1,1.1,i,0.91,-30,160,95,-6
